Yeast UUG start = yeast start codon fidelity modulation | S. cerevisiae UUG-firefly luciferase reporter, luminescence/redox ratio | activity score, % at 18.7 µM | 350,000 compounds, 0.13% hits | AID 602363;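 active = replicate mean at a twofold rise or more, about +100% in these data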;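 note: firefly luciferase made from a UUG start codon reports start codon fidelity; reporter light over untreated wells divided by growth signal over untreated wells; some hits fall short of that in this replicate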
Env fusion inh = inhibitors of HIV Env-mediated cell fusion; 360,000 compounds, 1.1% hits; HeLa-JRFL Env/CEM21 cell fusion, luciferase; inhibition, % at 12.3 µM;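 active = mean replicate inhibition score of at least 50 and every replicate individually at or above 50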;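 note: 0% = plate neutral controls and 100% = maraviroc near 300 nM; one replicate is shown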
* marks the source's active call; other numbers are inactive results; [ ] = another dose, or the depositor's remark. Some of the compounds tested; rates above refer to the full screens.

SMILES	Yeast UUG start	Env fusion inh
Cc1noc(C)c1S(=O)(=O)Nc1ccc2c(c1)C(=O)N([C@@H](C)CO)C[C@H](C)[C@@H](CN(C)S(=O)(=O)c1cn(C)cn1)OCCCC[C@@H](C)O2	4.8	-12.6[16.7 µM]
C[C@H]1CN([C@@H](C)CO)C(=O)c2cc(NC(=O)C3CCCCC3)ccc2O[C@@H]1CN(C)C(=O)Nc1ccc(F)cc1	-0.8	20.7[16.7 µM]
C[C@@H]1CN([C@H](C)CO)S(=O)(=O)c2ccc(-c3cccc(C#N)c3)cc2O[C@H]1CN(C)C(=O)c1ccccc1	-18.1	-8.5[16.7 µM]
COc1ccc(C#Cc2ccc3c(c2)O[C@@H](CN(C)C(=O)Nc2cccc(OC)c2)[C@@H](C)CN([C@@H](C)CO)S3(=O)=O)cc1	-11.3	10.5[16.7 µM]
Cc1noc(C)c1S(=O)(=O)N(C)C[C@H]1OCCCC[C@@H](C)Oc2ccc(NC(=O)C3CCCCC3)cc2C(=O)N([C@H](C)CO)C[C@H]1C	8.6	33.0[16.7 µM]
COc1cccc(NC(=O)N(C)C[C@H]2Oc3cc(/C=C/c4ccccc4)ccc3S(=O)(=O)N([C@@H](C)CO)C[C@H]2C)c1	2.6	5.8[16.7 µM]
C[C@H](CO)N1C[C@H](C)[C@@H](CN(C)Cc2ccc3c(c2)OCO3)Oc2ccc(NC(=O)Cn3cnnn3)cc2CC1=O	-16.9	1.1[16.7 µM]
CCC(=O)Nc1ccc2c(c1)C(=O)N(C)[C@H]1CC[C@@H](CC(=O)NCCCN(C)C)O[C@H]1CO2	30.1	13.4[16.7 µM]
C[C@@H]1CN([C@H](C)CO)C(=O)c2cc(NS(C)(=O)=O)ccc2O[C@H]1CN(C)S(=O)(=O)c1ccc(Cl)cc1	-11.6	-20.3[16.7 µM]
COCC#Cc1cnc2c(c1)C(=O)N([C@@H](C)CO)C[C@H](C)[C@H](CN(C)C(=O)C1CC1)O2	-7.9	-9.7[16.7 µM]
COc1ccccc1-c1cn(CC[C@H]2CC[C@H](NC(=O)c3ccccc3F)[C@H](CO)O2)nn1	15.0	-2.6[16.7 µM]
COc1ccc(S(=O)(=O)Nc2ccc3c(c2)C(=O)N([C@@H](C)CO)C[C@@H](C)[C@H](CN(C)C(=O)Nc2c(C)noc2C)OCCCC[C@@H](C)O3)cc1	21.9	-2.7[16.7 µM]
Cc1noc(C)c1S(=O)(=O)N(C)C[C@@H]1Oc2ccc(NC(=O)Nc3ccc4c(c3)OCO4)cc2CC(=O)N([C@H](C)CO)C[C@H]1C	-0.8	33.4[16.7 µM]
C[C@@H]1CN([C@@H](C)CO)C(=O)c2cc(NS(=O)(=O)c3ccccc3)ccc2O[C@@H](C)CCCCO[C@@H]1CN(C)C(=O)CCC(F)(F)F	22.6	-18.5[16.7 µM]
COc1cccc(NC(=O)Nc2ccc3c(c2)C(=O)N(C)[C@@H]2CC[C@H](CC(=O)O)O[C@H]2CO3)c1	3.4	-1.9[16.7 µM]
CC(C)NC(=O)N(C)C[C@H]1Oc2ccc(NC(=O)C3CC3)cc2C(=O)N([C@@H](C)CO)C[C@H]1C	-0.7	3.6[16.7 µM]
COc1ccc(NC(=O)N(C)C[C@H]2OCCCC[C@@H](C)Oc3ccc(NC(=O)Cc4ccccc4)cc3C(=O)N([C@@H](C)CO)C[C@@H]2C)cc1	5.1	-164.9[16.7 µM]
COc1ccc(S(=O)(=O)N(C)C[C@@H]2OCCCC[C@@H](C)Oc3ccc(NC(=O)Nc4c(C)noc4C)cc3C(=O)N([C@H](C)CO)C[C@@H]2C)cc1	-7.4	12.7[16.7 µM]
C[C@@H]1CCCCO[C@H](CN(C)C(=O)Nc2ccccc2)[C@H](C)CN([C@@H](C)CO)C(=O)c2cc(NS(=O)(=O)c3ccccc3)ccc2O1	-1.5	-51.9[16.7 µM]
C[C@@H]1CN([C@@H](C)CO)C(=O)Cc2cc(NS(=O)(=O)c3ccc(F)cc3)ccc2O[C@H]1CN(C)S(=O)(=O)c1cccs1	22.1	-1.3[16.7 µM]

Among those listed so far, 3 contain two or more sulfur atoms.
SMILES	Yeast UUG start	Env fusion inh
Cc1noc(C)c1S(=O)(=O)Nc1ccc2c(c1)C(=O)N([C@@H](C)CO)C[C@H](C)[C@@H](CN(C)S(=O)(=O)c1cn(C)cn1)OCCCC[C@@H](C)O2	4.8	-12.6[16.7 µM]
C[C@@H]1CN([C@H](C)CO)C(=O)c2cc(NS(C)(=O)=O)ccc2O[C@H]1CN(C)S(=O)(=O)c1ccc(Cl)cc1	-11.6	-20.3[16.7 µM]
C[C@@H]1CN([C@@H](C)CO)C(=O)Cc2cc(NS(=O)(=O)c3ccc(F)cc3)ccc2O[C@H]1CN(C)S(=O)(=O)c1cccs1	22.1	-1.3[16.7 µM]

The listing continues:
SMILES	Yeast UUG start	Env fusion inh
C[C@@H]1CN([C@H](C)CO)C(=O)c2cc(NS(=O)(=O)c3cccs3)ccc2O[C@@H](C)CCCCO[C@@H]1CN(C)S(=O)(=O)c1ccccc1	23.6	-6.8[16.7 µM]
CCCC#Cc1cnc2c(c1)C(=O)N([C@@H](C)CO)C[C@@H](C)[C@H](CN(C)C(=O)c1ccc3c(c1)OCO3)O2	5.7	3.5[16.7 µM]
Cc1noc(C)c1S(=O)(=O)Nc1ccc2c(c1)C(=O)N([C@@H](C)CO)C[C@@H](C)[C@@H](CN(C)C(=O)c1ccccc1)OCCCC[C@@H](C)O2	5.0	9.8[16.7 µM]
C[C@@H]1CCCCO[C@H](CN(C)Cc2ccc(Cl)c(Cl)c2)[C@@H](C)CN([C@@H](C)CO)C(=O)c2cc(NC(=O)c3ccccc3)ccc2O1	9.7	24.2[16.7 µM]
Cc1ccc(S(=O)(=O)Nc2ccc3c(c2)C(=O)N([C@H](C)CO)C[C@H](C)[C@@H](CN(C)Cc2ccc4c(c2)OCO4)OCCCC[C@H](C)O3)cc1	39.5	-9.6[16.7 µM]
COc1ccccc1CN1C[C@@H](C)[C@@H](OC)CN(C)C(=O)c2ccc(NC(C)=O)cc2OC[C@H]1C	-1.0	21.0[16.7 µM]
C[C@@H]1CN([C@H](C)CO)C(=O)c2cccc(NC(=O)Nc3ccc(C(F)(F)F)cc3)c2O[C@@H]1CN(C)C(=O)Nc1cccc2ccccc12	5.1	1.5[16.7 µM]
Cc1ccc(S(=O)(=O)Nc2cccc3c2O[C@@H](CN(C)S(=O)(=O)c2ccc(C)cc2)[C@@H](C)CN([C@@H](C)CO)C3=O)cc1	10.6	-13.6[16.7 µM]
CCCNC(=O)N[C@@H]1C=C[C@@H](CC(=O)NC2CCCCC2)O[C@@H]1CO	-2.5	-19.8[16.7 µM]
CCCNC(=O)N[C@H]1C=C[C@@H](CC(=O)N2CCN(C)CC2)O[C@@H]1CO	1.6	19.5[16.7 µM]
Cc1ccccc1-c1ccc2c(c1)O[C@H](CN(C)C(=O)C1CC1)[C@@H](C)CN([C@H](C)CO)S2(=O)=O	3.3	3.6[16.7 µM]
C[C@H](CO)N1C[C@H](C)[C@@H](CN(C)Cc2ccncc2)Oc2ncc(/C=C/c3ccccc3)cc2C1=O	-4.4	8.4[16.7 µM]
CC(C)NC(=O)N[C@@H]1C=C[C@H](CC(=O)O)O[C@@H]1CO	-4.7	2.0[16.7 µM]
Cc1noc(C)c1NC(=O)N(C)C[C@@H]1OCCCC[C@H](C)Oc2ccc(NC(=O)Nc3ccc(C(F)(F)F)cc3)cc2C(=O)N([C@H](C)CO)C[C@@H]1C	-5.3	-15.7[16.7 µM]
C[C@@H]1CN([C@@H](C)CO)C(=O)Cc2cc(NC(=O)Nc3cccc4ccccc34)ccc2O[C@@H]1CN(C)S(=O)(=O)c1cccs1	9.4	8.0[16.7 µM]
C[C@H](CO)N1C[C@H](C)[C@@H](CN(C)C(=O)CN(C)C)Oc2ncc(C#CC(C)(C)O)cc2C1=O	-4.5	3.8[16.7 µM]
CCCN(C)C[C@@H]1OCCCC[C@H](C)Oc2ccc(NC(=O)CCCN(C)C)cc2C(=O)N([C@@H](C)CO)C[C@@H]1C	-8.0	-7.8[16.7 µM]
CN(C)CC(=O)N1[C@H](C#N)[C@H](c2ccc(-c3cccc(C(=O)N(C)C)c3)cc2)[C@@H]1CO	13.7	-0.8[16.7 µM]
CNC[C@@H]1OCCCC[C@@H](C)Oc2ccc(N)cc2C(=O)N([C@H](C)CO)C[C@H]1C	20.5	-8.3[16.7 µM]
COc1ccc(CN(C)C[C@H]2OCCCC[C@H](C)Oc3ccc(NC(=O)NC4CCCCC4)cc3C(=O)N([C@H](C)CO)C[C@H]2C)cc1	13.6	-30.1[16.7 µM]
C[C@@H]1CN([C@H](C)CO)C(=O)Cc2cc(NC(=O)Nc3ccc(F)cc3)ccc2O[C@H]1CN(C)S(=O)(=O)c1ccc(F)cc1	-1.3	0.2[16.7 µM]
O=C(C[C@H]1C=C[C@H](NC(=O)C2CCC2)[C@@H](CO)O1)NCCCN1CCOCC1	-19.8	-4.6[16.7 µM]
C[C@@H]1CN([C@H](C)CO)C(=O)c2cc(NC(=O)Cc3ccccc3)ccc2O[C@@H](C)CCCCO[C@H]1CN(C)C(=O)Cc1ccccc1	11.7	-33.1[16.7 µM]
C[C@@H]1CN([C@@H](C)CO)C(=O)c2cc(NC(=O)Nc3ccc(F)cc3)ccc2O[C@H]1CN(C)S(=O)(=O)c1ccc(Cl)cc1	-2.9	8.8[16.7 µM]
Cc1noc(C)c1S(=O)(=O)Nc1ccc2c(c1)C(=O)N([C@H](C)CO)C[C@@H](C)[C@@H](CN(C)S(=O)(=O)c1cn(C)cn1)OCCCC[C@H](C)O2	-4.1	1.9[16.7 µM]
C[C@@H]1CCCCO[C@H](CN(C)C(=O)c2ccncc2)[C@@H](C)CN([C@@H](C)CO)C(=O)c2cc(NS(C)(=O)=O)ccc2O1	5.0	-8.2[16.7 µM]
CC(C)C#Cc1ccc2c(c1)O[C@H](CN(C)C(=O)c1ccccc1)[C@@H](C)CN([C@@H](C)CO)S2(=O)=O	56.5	-43.3[16.7 µM]
COC(=O)C[C@H]1CC[C@@H]2[C@H](COc3ccc(NC(=O)c4cccs4)cc3C(=O)N2C)O1	2.8	-0.8[16.7 µM]
C[C@@H]1CN([C@@H](C)CO)C(=O)Cc2cc(NS(=O)(=O)c3ccc(Cl)cc3)ccc2O[C@H]1CN(C)S(C)(=O)=O	4.4	1.8[16.7 µM]
C[C@H](NC(=O)C[C@H]1C=C[C@H](NC(=O)c2cccnc2)[C@H](CO)O1)c1ccccc1	-9.2	-6.0[16.7 µM]
C[C@@H]1CN([C@H](C)CO)C(=O)c2cccc(NC(=O)Nc3ccccc3)c2O[C@H]1CN(C)C(=O)Nc1ccc2c(c1)OCO2	-3.7	13.9[16.7 µM]
C[C@@H]1CN([C@H](C)CO)C(=O)c2cc(NC(=O)c3ccncc3)ccc2O[C@@H]1CN(C)CC1CCCCC1	4.7	2.0[16.7 µM]
C[C@@H]1CN([C@H](C)CO)C(=O)c2cc(NS(=O)(=O)c3cccs3)ccc2O[C@@H](C)CCCCO[C@H]1CN(C)Cc1ccncc1	-8.6	-14.0[16.7 µM]
C[C@@H]1CN([C@@H](C)CO)C(=O)c2cc(NS(=O)(=O)c3cn(C)cn3)ccc2O[C@@H](C)CCCCO[C@H]1CN(C)C(=O)Nc1ccc2c(c1)OCO2	-8.8	17.4[16.7 µM]
C[C@H]1CN([C@@H](C)CO)C(=O)c2cccc(N(C)C)c2O[C@@H]1CN(C)Cc1ccccc1	-5.6	-19.4[16.7 µM]
C[C@H]1CN([C@@H](C)CO)C(=O)c2cc(C3=CCCCC3)cnc2O[C@@H]1CN(C)C(=O)Nc1ccc(F)cc1	11.8	-54.3[16.7 µM]
C[C@@H]1CN([C@@H](C)CO)S(=O)(=O)c2ccc(-c3ccc(F)cc3)cc2O[C@@H]1CN(C)S(C)(=O)=O	2.1	-8.8[16.7 µM]
CC(=O)N(C)C[C@H]1Oc2ncc(C#Cc3ccccc3)cc2C(=O)N([C@@H](C)CO)C[C@H]1C	0.1	12.1[16.7 µM]
C[C@H]1CN([C@@H](C)CO)S(=O)(=O)c2ccc(C3=CCCCC3)cc2O[C@@H]1CN(C)Cc1ccccn1	9.1	10.6[16.7 µM]
C[C@H]1CN([C@@H](C)CO)S(=O)(=O)c2ccc(-c3cccc(F)c3)cc2O[C@H]1CN(C)S(=O)(=O)c1ccc(F)cc1	-18.8	42.4[16.7 µM]
CCC(=O)N1C[C@@H](C)[C@H](OC)CN(C)C(=O)c2ccc(NC(=O)COC)cc2OC[C@H]1C	-9.9	-2.5[16.7 µM]
C[C@@H]1CCCCO[C@H](CN(C)C(=O)c2ccncc2)[C@H](C)CN([C@@H](C)CO)C(=O)c2cc(NS(=O)(=O)c3cn(C)cn3)ccc2O1	8.0	7.0[16.7 µM]
CCCN(C)C[C@H]1Oc2ncc(C#CC3(O)CCCC3)cc2C(=O)N([C@H](C)CO)C[C@H]1C	-5.3	-1.5[16.7 µM]
Cc1ccc(S(=O)(=O)Nc2ccc3c(c2)CC(=O)N([C@H](C)CO)C[C@H](C)[C@H](CN(C)S(=O)(=O)c2ccc(Cl)cc2)O3)cc1	3.6	43.0[16.7 µM]
C[C@@H]1CN([C@H](C)CO)C(=O)c2cc(C#CC3CC3)cnc2O[C@@H]1CN(C)C(=O)Nc1ccccc1	-1.9	-24.8[16.7 µM]
COc1cccc(C#Cc2ccc3c(c2)O[C@H](CN(C)C(=O)CN2CCOCC2)[C@H](C)CN([C@@H](C)CO)S3(=O)=O)c1	48.8	-7.5[16.7 µM]
N#C[C@@H]1[C@H](c2ccc(-c3ccccc3F)cc2)[C@@H](CO)N1C(=O)C1CC1	-3.3	0.4[16.7 µM]
COc1ccc(NC(=O)Nc2ccc3c(c2)C(=O)N([C@@H](C)CO)C[C@H](C)[C@@H](CN(C)S(C)(=O)=O)OCCCC[C@@H](C)O3)cc1	11.0	-8.9[16.7 µM]

Random excerpt: two entries already listed
SMILES	Yeast UUG start	Env fusion inh
CCCN(C)C[C@H]1Oc2ncc(C#CC3(O)CCCC3)cc2C(=O)N([C@H](C)CO)C[C@H]1C	-5.3	-1.5[16.7 µM]
COc1cccc(C#Cc2ccc3c(c2)O[C@H](CN(C)C(=O)CN2CCOCC2)[C@H](C)CN([C@@H](C)CO)S3(=O)=O)c1	48.8	-7.5[16.7 µM]
